Assay outcomes (PubChem)
GIV Gai3 FP = inhibitors of GIV peptide binding to Galpha-i3, primary screen, biochemical, fluorescence polarization, FITC-GIV GBA peptide, rat Galphai3; Guanine nucleotide-binding protein G(i) subunit alpha-3 (Rattus norvegicus), P08753; 90 min; hits give low values; scaled: aluminum fluoride 0%, vehicle 100%; percent of control (FP), % (test concentration not listed); hit rate 0.42% among 210,000; AID 1224905, 2016;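 active = replicate mean at 85% of control or lower, very high polarization wells dropped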;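 note: wells of about 15 µL received 100 nL stock; the first replicate is given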
Target sequence (P08753 whole entry, looked up): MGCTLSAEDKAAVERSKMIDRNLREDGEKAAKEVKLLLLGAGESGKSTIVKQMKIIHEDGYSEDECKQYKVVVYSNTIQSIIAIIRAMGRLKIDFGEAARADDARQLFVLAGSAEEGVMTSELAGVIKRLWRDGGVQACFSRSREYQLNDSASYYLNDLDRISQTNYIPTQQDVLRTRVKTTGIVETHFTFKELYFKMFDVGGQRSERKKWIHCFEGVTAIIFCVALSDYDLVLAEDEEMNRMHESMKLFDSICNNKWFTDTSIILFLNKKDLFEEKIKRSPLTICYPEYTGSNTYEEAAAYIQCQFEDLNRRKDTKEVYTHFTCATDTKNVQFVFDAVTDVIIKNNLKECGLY
HCMV UL50-53 inh = inhibitors of HCMV UL50-UL53 interaction, biochemical, HTRF; normalized percent inhibition; inhibition, % (test concentration not listed); hit rate 0.15% among 190,000; AID 1918969, 2023;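 active = both replicates at 50% or more, plus weaker picks with an unusually low signal ratio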;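 note: stock transfer was 100 nL into about 20 µL; 0% = negative control wells and 100% = wells with untagged competitor protein; inactives centre near -12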
Sa growth 42C = S. aureus growth inhibition at 42 and 30 °C, primary screen, LtaS inhibitor project, RN4220, two temperatures. relative growth, % (no concentration beside the values). OD600, 20 h, 42 °C; hits give low values. hit rate 0.53% among 170,000;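 active = growth at 42 °C up to 50% and 20 or more points under that at 30 °C, or under 10% at both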;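 note: 300 nL library stock went into each well; scaled to the means of positive and negative controls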
Sa growth 42C second temp = second read-out of Sa growth 42C, no call of its own (marks repeat the call); relative growth, %; measured here: growth at 30 °C;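 optical density after 20 h as mean of two plates; 100% = untreated growth and lower means inhibition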
The depositor's hits bear a star; nt = not tested or not shown; & = joins results of further samples. Compounds as they come; overall some 0.82% were active at least once.

#	molecule	GIV Gai3 FP	HCMV UL50-53 inh	Sa growth 42C	Sa growth 42C second temp
1	O=C(NCC(c1cccnc1)N1CCOCC1)C(=O)Nc1cccc(Cl)c1 (centres undefined)	106	-12	123	89
2	Cc1cccc(OCCCC(=O)Nc2ccccc2N2CCOCC2)c1	nt	-33	109	93
3	NCc1ccccc1OC(F)(F)F	nt	-13	86	85
4	NNC(=O)C1CCC(c2ccc(Cl)cc2)CC1 (centres undefined)	95	0	119	96
5	CC(C)NC(=O)CCCc1nc(-c2ccc(Cl)cc2)no1	100	-8	97	86
6	CCCC(=O)Nc1cccc(N2CCn3c(nc4cc(Cl)ccc43)C2)c1	96	0	nt	nt
7	CCCCS(=O)(=O)Nc1ccc2cn[nH]c2c1	nt	-3	92	88
8	CCOc1ccc(N(C(C)C(=O)N2CCN(c3ccccc3)CC2)S(C)(=O)=O)cc1 (centres undefined)	102	-19	nt	nt
9	COc1ccc(F)cc1S(=O)(=O)Nc1ccc2c(c1)CCCN2C(=O)c1cccs1	100	nt	94	78
10	Cc1cccc(N2CCN(S(=O)(=O)c3ccc4c(c3)CC(=O)N4C)CC2)c1C	110&108	-5	102	100
11	CCOc1ccc(C2c3cc(OC)c(OC)cc3CC(=O)N2c2ccccc2)cc1 (centres undefined)	104	nt	110	89
12	CC(C)N(C(=O)Nc1ccccc1)C(C)C	106	11	92	111
13	N#Cc1ccccc1NS(=O)(=O)c1ccccc1	104	-14	103	92
14	CCCCN(CCCNC(=O)c1cc(Nc2ccccc2OC)nc2ccccc12)c1ccccc1	104	-12	100	91
15	COCCN1CCN(C2CCN(C(=O)Nc3ccccc3)CC2)C(=O)C1=O	98	-26	nt	nt
16	COc1ccc(Nc2nc3ccccc3c3nnc(C)n23)cc1Cl	110	-13	105	86
17	CC(O)CON1C(=O)c2ccccc2C1=O (centres undefined)	104	-20	93	90
18	COC(=O)c1ccccc1NC(=O)c1nc(S(=O)(=O)Cc2ccccc2F)ncc1Cl	105	11	93	91
19	NC(=O)c1ccc(NC(=O)COC(=O)Cc2cccc3ccccc23)cc1	nt	-39	80	81
20	Cc1c2cnn(CC(=O)N3CCc4ccccc43)c(=O)c2c(C)n1Cc1ccc(F)cc1	106	1	120	105
21	O=C(NC1CCCc2ccccc21)C1CCCN(c2ccnc(-c3ccc(F)cc3)n2)C1 (centres undefined)	106	2	nt	nt
22	Brc1ccc(C2Nc3ccc4ccccc4c3C3C=CCC32)cc1 (centres undefined)	104	1	nt	nt
23	NC(=O)C1CCCN1c1ncnc2sc(-c3ccccc3)cc12 (centres undefined)	nt	-46	115	82
24	COc1ccc2cc(C#N)c(Cl)nc2c1	103	nt	107	87
25	COc1ccc(OCc2nnc3sc(-c4cc(OC)cc(OC)c4)nn23)cc1	99	-13	nt	nt
26	Cc1nc(-n2nc(C)c(CCC(C)C)c2C)sc1C(=O)Nc1ccc(Br)cc1	102	-3	100	93
27	COC(=O)c1sc(-c2cccs2)cc1NC(=O)c1ccco1	104	5	86	71
28	COc1ccc(S(=O)(=O)Nc2ccc(O)c(Sc3ncn[nH]3)c2)cc1	101	-32	90	84
29	COC(=O)c1cc2c(C)nn(-c3ccccc3)c2s1	109	nt	116	82
30	CC(C)CCNC(=O)Nc1cc2c(cc1N1CCOCC1)n(C)c(=O)n2C	97	-11	nt	nt

Molecules listed so far containing a thiophene ring, fused or not, in the order listed:
#	molecule	GIV Gai3 FP	HCMV UL50-53 inh	Sa growth 42C	Sa growth 42C second temp
9	COc1ccc(F)cc1S(=O)(=O)Nc1ccc2c(c1)CCCN2C(=O)c1cccs1	100	nt	94	78
23	NC(=O)C1CCCN1c1ncnc2sc(-c3ccccc3)cc12 (centres undefined)	nt	-46	115	82
27	COC(=O)c1sc(-c2cccs2)cc1NC(=O)c1ccco1	104	5	86	71
29	COC(=O)c1cc2c(C)nn(-c3ccccc3)c2s1	109	nt	116	82

Additional entries.
#	molecule	GIV Gai3 FP	HCMV UL50-53 inh	Sa growth 42C	Sa growth 42C second temp
31	COc1cccc(-c2cc(C(=O)N(C)C3CCCCC3)[nH]n2)c1	105	-1	100	94
32	O=C(O)COc1ccc(-n2cccc2)cc1	104	7	146	64
33	CCc1nn(-c2ccccc2)c(=O)c2ccccc12	106	-7	101	88
34	CCCCN1C(=O)c2ccc(C(=O)Oc3ccc(-c4nnco4)cc3)cc2C1=O	nt	-51	87	94
35	Cn1nc(C(=O)NCc2ccccc2)c2c1CCN(C(=O)CC1CCCC1)C2	104	4	nt	nt
36	CC1CCN(C(=O)CCn2c(C(F)(F)F)nc3cc(S(=O)(=O)N(C)C)ccc32)CC1	107	-23	nt	nt
37	c1ccc(C(c2ccccc2)c2nn3c(-c4cccnc4)nnc3s2)cc1	106	-50	nt	nt
38	O=c1c2c(-c3ccccc3)csc2ncn1Cc1ccc2c(c1)OCO2	101	-14	nt	nt
39	O=C(Nc1ccc(F)cc1)N1CCC(Nc2nc3ccccc3o2)CC1	100	-13	100	80
40	Cc1nnsc1C(=O)NCc1ccc(N2CCN(C)CC2)cc1	104	-4	104	69
41	O=C1CC2(CCCC2)C(=O)N1c1ccc(S(=O)(=O)NCc2ccco2)cc1Cl	107	-20	92	86
42	CN(Cc1ccccc1)S(=O)(=O)c1ccc(-c2cnc(C3CC3)o2)cc1	99	nt	83	93
43	Clc1ccccc1N1CCN(c2ncnc3c2c(-c2ccccc2)cn3-c2ccccc2)CC1	106	nt	130	95
44	CCc1ccc(NC(=O)Cn2c(=O)n(-c3ccccc3C)c(=O)c3c2c2cc(OC)ccc2n3C)cc1	105	nt	105	94
45	OC1CC(c2ccccc2)Oc2ccccc21 (centres undefined)	104	0	112	108
46	COc1ccc(N/C=C\C(=O)c2ccc3c(c2)OCO3)cc1	102	-33	92	77
47	O=S(=O)(Nc1nc2n(n1)C(c1ccc(Cl)cc1)C=C(c1ccccc1)N2)c1ccccc1 (centres undefined)	107	-47	nt	nt
48	C=CCN1C(=O)/C(=C2\SC(=Nc3ccccc3)N(c3ccccc3)C2=O)c2ccccc21	106	nt	83	96
49	O=C(Nc1ccccc1C(=O)NC1CCCC1)NC1CCCC1	94	-26	88	97
50	O=C(CNC(=S)N(Cc1ccccc1)Cc1cccnc1)NC1CC1	98	nt	93	77
51	CCOc1ccc(Cn2c(=O)c3sccc3n3c(SCc4ccccc4F)nnc23)cc1OCC	98	-8	nt	nt
52	O=C(O)CC(C(=O)O)N1C(=O)CSC1=S (centres undefined)	nt	-18	79	86
53	COc1cccc(NC(=O)c2ccnc(N3CCC(C(=O)NCCc4ccc(Cl)cc4)CC3)c2)c1	101	-35	nt	nt
54	CC(C)OCc1cc(CN2CCN(c3cccc(C(F)(F)F)c3)CC2)c(O)c2ncccc12	101	-1	107	102
55	CCCCSc1nnc2c(n1)OC(c1ccccc1F)N(C(C)=O)c1ccccc1-2 (centres undefined)	101	-65	nt	nt
56	CCOC(=O)c1cnc2c(ccc3ccccc32)c1Nc1cccc(C(F)(F)F)c1	107	-36	99	86
57	Cc1cccc2cc(C#N)c(N3CCC(C)CC3)nc12	103	14	102	103
58	O=C1CC(N2CCCCC2)C=C1Nc1ccccc1 (centres undefined)	105	-25	86	72
59	CSc1oc(-c2ccco2)nc1S(=O)(=O)c1ccccc1	112	2	114	84
60	COC(=O)c1ccc2c(=O)[nH]c(COC(=O)c3ccccc3NCCO)nc2c1	nt	-26	71	83

Record cards, from the list above. Values in the order: GIV Gai3 FP | HCMV UL50-53 inh | Sa growth 42C | Sa growth 42C second temp
Results for CCOC(=O)c1cnc2c(ccc3ccccc32)c1Nc1cccc(C(F)(F)F)c1 : 107 | -36 | 99 | 86
Results for CCc1ccc(NC(=O)Cn2c(=O)n(-c3ccccc3C)c(=O)c3c2c2cc(OC)ccc2n3C)cc1 : 105 | nt | 105 | 94
Results for CCCCSc1nnc2c(n1)OC(c1ccccc1F)N(C(C)=O)c1ccccc1-2 (centres undefined) : 101 | -65 | nt | nt
Results for CCOc1ccc(Cn2c(=O)c3sccc3n3c(SCc4ccccc4F)nnc23)cc1OCC : 98 | -8 | nt | nt

(next part)
#	molecule	GIV Gai3 FP	HCMV UL50-53 inh	Sa growth 42C	Sa growth 42C second temp
61	O=C(NCCc1ccc(Cl)cc1)C1CCN(Cc2cc3ccccc3n2Cc2ccccc2)CC1	100	nt	100	56
62	COC(=O)Nc1nn(Cc2ccccc2F)cc1Br	99	0	96	84
63	O=C(OCN1C(=O)c2ccccc2C1=O)c1ccco1	109	-14	107	93
64	CS(=O)(=O)Nc1ccc2c(c1)OCC(=O)N2Cc1ccccc1	95	18	80	83
65	COC(=O)C(N)C(C)C (centres undefined)	nt	11	80	96
66	COc1ccccc1-c1nc(CNC(=O)Nc2ccccc2)c(C)o1	105	nt	85	94
67	Cc1ccc(C)c(NCc2ccc3c(c2)OCO3)c1	nt	6	120	91
68	CC(=O)c1ccc(N2C(=O)N(Cc3cccc(C(F)(F)F)c3)c3ccccc3S2(=O)=O)cc1	102	nt	103	105
69	Cc1cc(C)n(-c2nc3ccccc3nc2Nc2ccc(Cl)cc2Cl)n1	101	-10	103	97
70	CCC(=O)N(c1ccc(OC)cc1OC)C1C=CS(=O)(=O)C1 (centres undefined)	103	nt	111	94
71	COc1cccc(Cn2nnc(C(=O)Nc3cc(C)ccc3C)c2N)c1	104	6	95	82
72	O=C1CC(C(=O)N(C/C=C/c2ccccc2)c2ccc3c(c2)OCCO3)CN1Cc1ccco1 (centres undefined)	nt	4	57	33
73	COc1cc(NC(=O)c2nn3c(c2Cl)NC(c2ccc(OC)c(OC)c2)CC3C(F)(F)F)cc([N+](=O)[O-])c1 (centres undefined)	91	-28	nt	nt
74	CNC(=O)C1CCCN(c2nn3cc(-c4ccc(OC)cc4)nc3s2)C1 (centres undefined)	108	nt	107	91
75	CC1(C)CC(=O)c2c(SCCO)sc(C#N)c2C1	98	-64	107	75
76	COc1cccc(-n2cc(C(=O)NCc3ccccc3Cl)c3ccccc3c2=O)c1	104	nt	113	93
77	COc1ccc(N2CCN(C(=O)CC(c3cccc(C)c3)n3cccc3)CC2)cc1 (centres undefined)	104	4	88	71
78	CC1=C(c2ccccc2)S(=O)(=O)N(CC(=O)O)C1=O	102	-12	96	99
79	Cc1coc2cc3oc(=O)c(CC(=O)NCc4ccc(F)cc4)c(C)c3cc12	104	-10	108	90
80	COc1ccc2c(CNCCc3cccs3)c(C(=O)O)n(Cc3ccccc3C)c2c1	109	nt	139	110
81	COc1ccc(-c2noc(N3CCC(N4CCCCC4)CC3)n2)cc1	100	-27	nt	nt
82	CN1CCC(N(C)C(=O)/C(C#N)=C/c2ccc(OC(F)F)cc2)CC1	nt	-32	95	91
83	Cc1ccc(Cl)cc1NC(=O)Cn1c(=O)n(CCc2c[nH]c3ccccc23)c(=O)c2cccnc21	101	nt	75	61
84	Cc1ccc2c(c1)-c1onc(C(=O)N3CCC(C)CC3)c1CO2	104	nt	91	92
85	O=S(=O)(Cc1noc(-c2ccsc2)n1)c1ccccn1	101	5	93	110
86	CCCN1Cc2cccc(C(=O)Nc3ccc(CC)cc3)c2C1=O	103	-23	71	85
87	Nc1nc2c(c(=O)[nH]1)C(c1ccc(OCc3ccccc3)cc1)CC(=O)N2 (centres undefined)	98	-24	nt	nt
88	COC(=O)c1ccccc1NC(=O)c1ccc(CN2CC(=O)N3CCCCC3C2=O)cc1 (centres undefined)	107	nt	129	90
89	Cc1cc(C)n(C(=O)N2c3ccccc3Sc3ccccc32)n1	105	-8	112	81
90	CC1(C)CCc2cc(-c3ccn(S(=O)(=O)c4cccc(C(F)(F)F)c4)n3)ccc2O1	101	-43	89	91
91	CN1C(=O)C(C)(C)c2cc(S(=O)(=O)N3CCN(c4ccccc4)CC3)ccc21	101	9	nt	nt
92	Cn1nccc1NC(=O)CC#N	100	-22	100	89
93	CC(OC(=O)c1oc2ccccc2c1CSc1ncn[nH]1)C(=O)Nc1ccc(S(=O)(=O)Nc2ncccn2)cc1 (centres undefined)	nt	-3	92	79
94	Nn1c(=O)c2ccccc2n2c(SCC(=O)c3ccccc3)nnc12	96	nt	81	83
95	N#CCn1c(CSc2n[nH]c(N)n2)nc2ccccc2c1=O	nt	-14	100	62
96	Cc1cccc(NC(=O)CSc2cn(CC(=O)N3CCCC3)c3ccccc23)c1C	105	nt	110	92
